# AmpC inh no det: Promiscuous and Specific Inhibitors of AmpC Beta-Lactamase (assay without detergent) | Potency, µM (titrated, usually from 28.7 µM), for the others: at the top dose activity change, negative = inhibition | 71,000 compounds, 1.8% hits | P00811 | AmpC nitrocefin hydrolysis, absorbance 480 nm, no detergent; potencies from a single point are estimates; active = falling curve, for most hits resting on a single point; inconclusive = weak or doubtful change; inactive = flat or rising curve; also: % of control where 0% means no effect; about half of the hits show no inhibition at the top dose; a quarter of the inactives give rising signals
# Target sequence (P00811 whole entry, looked up): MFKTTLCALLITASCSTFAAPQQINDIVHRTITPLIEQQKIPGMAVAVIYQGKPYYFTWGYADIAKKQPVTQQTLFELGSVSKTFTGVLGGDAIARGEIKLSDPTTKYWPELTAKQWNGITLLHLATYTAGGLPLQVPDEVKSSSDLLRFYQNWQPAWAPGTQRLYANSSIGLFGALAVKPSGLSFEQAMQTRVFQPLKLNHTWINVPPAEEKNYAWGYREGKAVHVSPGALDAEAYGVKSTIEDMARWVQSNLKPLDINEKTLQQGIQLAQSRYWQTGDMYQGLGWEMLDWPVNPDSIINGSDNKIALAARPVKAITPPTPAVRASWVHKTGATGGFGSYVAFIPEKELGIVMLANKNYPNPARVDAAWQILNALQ
#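 Enzyme, pH 7.0 phosphate. Compound titrations were pre-incubated with AmpC for 15 min at room temperature before nitrocefin (stock 800 uM) addition; product formation was recorded at 480 nm every 20 s for 4 min.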
# * hit, by the source's call; ? = inconclusive; [ ] = dose if it differs, or a comment. Potency is read from the fitted curve at half-maximal effect.
SMILES,AmpC inh no det
Cc1ccc2ncccc2c1,-15.4%
CCCc1cc(=O)[nH]c(SC(CC)C(=O)Nc2ccccc2C#N)n1 (stereo unspecified),-10.2%
O=C(CSc1ncccc1C(=O)O)NCCC1=CCCCC1,5.8%
Cc1nn(-c2ccccc2)nc1CNC(=O)C(C)Cc1ccccc1 (stereo unspecified),-1.3%
COc1ccc(C2C3=C(CC(c4ccco4)CC3=O)Nc3ccccc3N2C(C)=O)cc1 (stereo unspecified),80.5%
Cc1cc2cc(CCNC(=O)c3ccc(S(=O)(=O)N4CCOCC4)cc3)c(=O)[nH]c2cc1C,119.5%
CCCS(=O)(=O)N1CCCC(C(=O)N2CCN(C(=O)OCC)CC2)C1 (stereo unspecified),-6.1%
Clc1ccccc1-c1nc(-c2ccncc2)no1,-5.3%[5.75 µM]
CCN(CC)c1ccc(NC(=O)c2nc3nc(C)cc(C(F)F)n3n2)cc1,32.7%
CC(=O)Cc1nsc(NC(=O)c2ccc(-c3ccc(Cl)c(C(F)(F)F)c3)o2)n1,-10.8%
CSc1nc(-c2ccccc2O)nc(-c2ccccc2O)n1,-21.0%
CCCCOc1ccc(C2(C)CC(=O)NC2=O)cc1 (stereo unspecified),5.9%
CC(C)n1c(C(O)c2ccc3c(c2)OCO3)nc2ccccc21 (stereo unspecified),8.6%
COC(=O)C(C)Sc1nc2c(c(=O)[nH]c(=O)n2C)n1CCC(C)C (stereo unspecified),19.1%
Cc1noc(C)c1CSCC(=O)OCc1nc2ccccc2c(=O)n1CC#N,1.8%

# Part of the list above, as labelled records:
> CCCCOc1ccc(C2(C)CC(=O)NC2=O)cc1 (stereo unspecified)
  AmpC inh no det: 5.9%
> CC(C)n1c(C(O)c2ccc3c(c2)OCO3)nc2ccccc21 (stereo unspecified)
  AmpC inh no det: 8.6%

# New compounds follow.
SMILES,AmpC inh no det
COC(=O)N1CCC[C@@]2(CCN(Cc3cc(C(F)(F)F)cc(C(F)(F)F)c3)C2)C1,4.4%
CC(c1ccccc1)C1NC(C(=O)O)CS1 (stereo unspecified),-8.2%
CCCCCC(=O)O[C@H](CC(=O)O)C[N+](C)(C)C,16.9%
CCOc1ccc(Br)c(C2(O)CC(C)N(C)CC2C)c1 (stereo unspecified),-16.9%
CC1CCN(CCn2c(=S)[nH]c3ncccc3c2=O)CC1,-12.1%
O=C1CC(N2CCCCCC2)C(=O)N1c1ccc2c(c1)OCO2 (stereo unspecified),15.1%
O=c1cnc2cnc(Nc3ccccc3)nc2n1C1CC1,-4.7%
CCOc1cc(C(=O)N2CCCC2)cc(OCC)c1OCC,17.5%
CCc1nc2oc3ccccc3c(=O)c2c(=O)n1Cc1ccccc1,7.2%
CC(C)(C)NC(=O)CN(C(=O)CCN1CCCc2ccccc21)C(C)(C)C,92.5%
CCc1ccc2oc(-c3cc(N)ccc3Cl)nc2c1,40.3%
CCOCC(=O)Nc1nnc(SCCOC)s1,-11.1%
CC1CCCCC1NC(=O)CC1Oc2ccccc2NC1=O (stereo unspecified),3.98µM*[single pt active]
COC(=O)[C@@]1(Cc2ccccc2)[C@H]2c3cc(C(=O)N(C)C)n(CCN4CNCC4=O)c3C[C@H]2CN1C(=O)c1ccccc1,164.7%
CN(C(=O)c1ccccc1)C1(C)CCS(=O)(=O)C1 (stereo unspecified),-6.8%
CCOC(=O)CSc1nnc(-c2cccs2)n1-c1ccccc1,11.2%
C=CCn1c(SCC(=O)C(C)(C)C)nnc1-c1ccccn1,23.8%
COCCNC(=O)c1noc2c1CCc1cc(OC)ccc1-2,4.7%
Cc1cccc(CSC2=NCCN2C(=O)c2ccc(Br)o2)c1,7.5%
Cc1nn(-c2ccccc2)c(-c2ccccc2)c1C(=O)O,-6.8%
CCCCN(C)C(=O)CS(=O)(=O)Cc1nc(-c2cccc(OC)c2)oc1C,104.7%
Cn1cc(CC(=O)Nc2cccc(C#N)c2)c2ccccc21,-2.4%
CC1CCCN(Cc2nc3c(c(=O)n(C)c(=O)n3C)n2Cc2c(F)cccc2Cl)C1 (stereo unspecified),?
Cc1ccccc1C1CC(c2ccc(Br)cc2)Nc2nc(N)nn21 (stereo unspecified),97.3%
CC1CCCCN1C(=O)CSCC(=O)Nc1nc(-c2cccs2)cs1 (stereo unspecified),10.0%
N#CCCn1c(=O)c(-c2cc(F)cc(F)c2)nc2cnc(Oc3cccc(Cl)c3)nc21,-3.6%
COCCn1c(=O)c(-c2ccccc2)nc2cnc(N(C)C)nc21,78.5%
Cc1cc(C)cc(OCC(=O)Nc2nonc2NC(=O)COc2cc(C)cc(C)c2)c1,?
Cc1ccc(C(=O)NC2CC3CCCC(C2)N3C(=O)NC2CCCCC2)cc1 (stereo unspecified),-1.1%
Cc1cc(C)c(C(=O)CN2CCOCC2)c(C)c1,2.3%
O=C(Cn1cc2c(n1)CCCC2)NCc1cccc(Cl)c1,14.2%
COc1cccc(NC(=O)CNC(=O)c2ccc(F)cc2)c1,10.3%
Cc1ccc(-n2cnnn2)c2cccnc12,-0.6%
CC(=O)N=C1SC2CS(=O)(=O)CC2N1c1cccc(Cl)c1Cl (stereo unspecified),3.9%
COCCCn1c(SCC(=O)NC(C)C)nnc1-c1ccccc1,-1.9%
Cc1cccc(-n2c(=O)cc(N3CCN(c4ccc(F)cc4)CC3)[nH]c2=O)c1,83.8%
COc1ccc2c(c1)CCc1c(C(=O)NCc3ccc(F)cc3)noc1-2,3.98µM*[single pt active]
CCCOc1ccc(C(=O)NCc2ccco2)cc1,-8.2%
CCN1CCN(c2ccc(NC(=O)c3ccc4c(c3)OCO4)cc2)CC1,1.9%
CCCC(=O)Nc1ccc(C(=O)O)cc1NC(=O)CCC,-14.3%
COCCOC(=O)C1=C(C)NC(=O)N(C(C)=O)C1c1ccc(Cl)cc1 (stereo unspecified),29.4%
CN(c1ccccc1C(=O)N1CCN(c2cccc(Cl)c2)CC1)S(C)(=O)=O,97.7%
Cc1cc(C)n(-c2cc(=O)n(C)c(=O)n2C)n1,-6.8%
Cc1nc(C)c(C(=O)C2=C(O)C(=O)N(CCN3CCOCC3)C2c2cccnc2)s1 (stereo unspecified),-2.9%
COc1cc(CN(C)CCc2ccccn2)cc(OC)c1OC,4.1%
CNc1nc(-c2cccc(NS(C)(=O)=O)c2)nc2ccccc12,2.3%
COc1ccc(OC)c(-c2oc3ccccc3c(=O)c2O)c1,-5.9%
O=C(N1CCCCC1)N1CCN(c2ccc(Cl)cc2)CC1,65.4%
COc1ccc2c(c1)Cc1sc(NC(C)=O)nc1-2,8.4%
CC(=O)O[C@H](CC(=O)O)C[N+](C)(C)C,3.0%
CCC(C)(C)n1nnnc1C(c1ccc2ncccc2c1)N1CCN2CCCC2C1 (stereo unspecified),17.2%
COc1ccc(CNc2oc(Cc3cccc4ccccc34)nc2C#N)cc1,-7.8%
CCOc1cccc(CN2CCN(c3cccc(C(F)(F)F)c3)CC2)c1O,45.4%
COC(=O)[C@H]1[C@@H]2C[C@H]3c4[nH]c5ccccc5c4CCN3C[C@@H]2CC[C@@H]1O,10.4%
CCC(Oc1ccccc1)C(=O)N1CCN(c2ccccn2)CC1 (stereo unspecified),14.1%
Cc1oc2c(CN3CCCC3)c(O)ccc2c(=O)c1-c1ccc(Cl)cc1,3.2%
NC(=O)c1c(NC(=O)c2cc3ccccc3o2)sc2c1CCC2,-17.0%
CCOC(=O)CCc1c(C)c2ccc(OCc3nn[nH]n3)c(C)c2oc1=O,-13.4%
COc1ccc(C2C(C#N)=C(C)NC3=C2C(=O)CC(C)(C)C3)c(OC)c1 (stereo unspecified),15.6%
C#CCN1CC(C)/C(=N/O)CC1C (stereo unspecified),-12.6%

# Retrieved by compound from the list above (3):
SMILES,AmpC inh no det
CCC(Oc1ccccc1)C(=O)N1CCN(c2ccccn2)CC1 (stereo unspecified),14.1%
CNc1nc(-c2cccc(NS(C)(=O)=O)c2)nc2ccccc12,2.3%
CCOc1cccc(CN2CCN(c3cccc(C(F)(F)F)c3)CC2)c1O,45.4%

# Next part
SMILES,AmpC inh no det
COc1cccc(C(=O)NCc2nnc(SCC(=O)Nc3nccs3)n2-c2ccccc2)c1,38.2%
COCC(=O)N1CCC2(CC1)CCN(c1ncccn1)CC2,11.0%
COc1cc(OC)cc(C(=O)N(Cc2nc(-c3cccc(C)c3)no2)C(C)C)c1,79.4%
COc1ccccc1C(=O)N1CCCC(c2nc(-c3cc(OC)c(OC)c(OC)c3)no2)C1 (stereo unspecified),107.3%
CCCCn1nnnc1NCc1cccnc1,-8.7%
O=C1c2ccccc2C(=O)N1CC#CCN1CCN(C2CCCCC2)CC1,-2.2%
Cc1cc(C)cc(N(CC(=O)NC2CC3CCC2C3)S(C)(=O)=O)c1 (stereo unspecified),38.2%
COc1ccc(OC)c(S(=O)(=O)Nc2cc(Cl)cc(Cl)c2)c1,-0.5%
CC(C)N(C(=O)COC(=O)c1ccc(O)cc1)C(C)C,-5.9%
COCc1nnc(NC(=O)c2cc(Cl)ccc2OC)s1,43.1%
COc1ccc(CN(C(=O)c2ccco2)C2CC(C)N(C)CC2C)cc1 (stereo unspecified),20.8%
C=C(C)CN(CC)c1nc(N)c(C#N)c(CC#N)c1C#N,-5.8%
O=C(CCSc1nnc(-c2ccco2)o1)Nc1ccccc1,10.6%
CCC(Sc1nc(N)cc(=O)[nH]1)C(=O)NC(C(=O)OC)c1ccccc1 (stereo unspecified),-4.3%
Cc1ccc(OCc2nc(C#N)c(N3CCN(Cc4ccccc4)CC3)o2)cc1,35.3%
COC(=O)c1cc(NCc2ccc3c(c2)OCO3)ccc1N1CCOCC1,79.7%
O=C(Nc1ccccn1)c1ccc(NC(=O)c2ccco2)cc1,1.4%
O=C(Nc1ccc(-c2nc3cccnc3s2)cc1)c1ccco1,26.3%
Cc1ccn2cc(CNC(=O)c3ccc(Br)o3)nc2c1,0.4%
CCSc1nnc(NC(=O)C2Cc3ccccc3CN2C(=O)c2ccco2)s1 (stereo unspecified),5.8%
CC(SC1CCCC1)C(=O)Nc1ccnn1C(C)C (stereo unspecified),-3.4%
CC(=O)SC[C@@H](Cc1ccccc1)C(=O)NCC(=O)OCc1ccccc1,17.4%[12.8 µM]
CC1(C)Cc2c(C#N)c(N)sc(=S)c2CO1,-13.2%
Cc1ccc(C)c(-n2nnnc2SCC(=O)c2ccc3c(c2)NC(=O)CO3)c1,-1.1%
Cc1ccc(/C(COc2ccccc2O)=N\O)cc1,-9.1%
CCOc1ccc(Cl)cc1S(=O)(=O)N1CCCC1,-0.7%
Cc1ccc(Cl)cc1-n1c(=O)cc(N2CC(C)OC(C)C2)[nH]c1=O (stereo unspecified),9.9%
Cc1ccc(-n2cnc3c(sc4nccc(N(C)C)c43)c2=O)cc1,40.5%
CCn1c(=O)c2[nH]c(-c3ccccc3)nc2n(CC)c1=O,11.6%
O=C(CCCN1C(=O)c2ccccc2C1=O)NC1=NCCS1,-0.4%
CCCCC(=O)Nc1cccc(NC(=O)c2ccc3c(c2)OCO3)c1,-20.1%
CCNc1ncc2nc(-c3ccc(Cl)cc3)c(=O)n(Cc3cccc(OC)c3)c2n1,-1.4%
C(=N\n1cnnc1)/c1ccc2c(c1)OCO2,-6.3%
Cc1c(C(=O)NCc2cccnc2)sc2ncn(CC(=O)N3CCCCC3C)c(=O)c12 (stereo unspecified),20.1%
Cc1ccc(CN2CCN(CC(=O)N3CCc4ccccc4C3)C2=O)cc1,42.3%
Cc1ccc(C(=O)N2CCOCC2)cc1S(=O)(=O)Nc1cccc(C)c1C,21.5%
Cc1ccc2[nH]c(-c3cccc(N)c3)cc2c1,12.9%
CSc1nnc([C@@H](N)Cc2ccccc2)o1,-3.7%
O=C1CC(Nc2ccc(N3CCOCC3)cc2)C(=O)N1C1CCCCC1 (stereo unspecified),17.7%
CCn1c(SCC(=O)N2CCC(C(N)=O)(N3CCCCC3)CC2)nnc1-c1ccccc1,45.5%
CCOc1ccc(-n2c(=O)[nH]cc(C(=O)N3CCCc4ccccc43)c2=O)cc1,14.4%
CCCCC(=O)Nc1ccc(NC(=O)c2cc(OC)c(OC)c(OC)c2)cn1,10.4%
c1ccc(-n2nnnc2SCc2cccc3nsnc23)cc1,-0.9%
Cc1ccccc1N(C(=O)CCC(=O)Nc1ccccn1)C(C(=O)NC(C)C)c1ccc(O)cc1 (stereo unspecified),30.4%
CN1CCN(c2nc(NCCOC34CC5CC(CC(C5)C3)C4)nc(OCC(F)(F)F)n2)CC1,130.2%
COc1ccc(Cn2c(C3CC3)nc3ccc(NC(=O)C4CC4)cc3c2=O)cc1,58.4%
CCOC(=O)N1CCN(S(=O)(=O)c2ccc(C)cc2)C1c1ccc(OC)cc1 (stereo unspecified),69.5%
COc1cc(OC)c(C2C(C(=O)O)c3ccccc3C(=O)N2C)cc1OC (stereo unspecified),-16.8%
COc1ccc2c3c([nH]c2c1)[C@@H]1C[C@@H]2[C@@H](C[C@H](O)[C@H](OC)[C@H]2C(=O)O)CN1CC3,1.5%[12.8 µM]
COc1ccc(N2CCC(CNC(=O)Nc3ccc(C)c(C)c3)C2)cc1 (stereo unspecified),-15.6%
O=C(O)[C@H]([C@H]1NCCS1)N1C(=O)c2ccccc2C1=O,-5.0%[5.75 µM]
O=C(CCCOc1ccc(Cl)cc1Cl)N1CCC2(CC1)OCCO2,89.1%

# Shown field by field: 4 of the compounds above
CCNc1ncc2nc(-c3ccc(Cl)cc3)c(=O)n(Cc3cccc(OC)c3)c2n1
- AmpC inh no det = -1.4%
C(=N\n1cnnc1)/c1ccc2c(c1)OCO2
- AmpC inh no det = -6.3%
Cc1c(C(=O)NCc2cccnc2)sc2ncn(CC(=O)N3CCCCC3C)c(=O)c12 (stereo unspecified)
- AmpC inh no det = 20.1%
Cc1ccc(CN2CCN(CC(=O)N3CCc4ccccc4C3)C2=O)cc1
- AmpC inh no det = 42.3%

# Source: PubChem BioAssay

# The list is partial. The share of hits here may be higher or lower than overall.
